rRNA inh HTS = reduced GFP signal of wild-type E. coli, primary screen, bacterial rRNA inhibitor project, GFP/RFP fluorescence, OD600, single point; E. coli WT GFP vs humanized-ribosome RFP mutants, 24 h; active compounds read low; DMSO median 0, no signal -100; GFP signal change (wild-type ribosome), % (test concentration not listed); actives 1.6% (n = 350,000); AID 720706, 2013;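 active = significant combined selectivity score with lowered wild-type GFP, culture density cut under 30%, mutant RFP and density less affected; inactive = any of these conditions unmet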; also: one replicate is shown; some compounds called inactive have numbers as strong as hits
Vif A3G = inhibitors of Vif binding to APOBEC3G peptide, primary screen, biochemical, TR-FRET, GST-Vif 1-94, biotin-A3G peptide, dose response retest (AID 1117319) | Virion infectivity factor (Human immunodeficiency virus type 1 group M subtype B (isolate … | TR-FRET GST-Vif / biotin-A3G peptide binding; higher % means a stronger effect; test concentration not given here; strong numbers were not always called active | inhibition, %; hits with a dose series show IC50 in µM | actives 0.57% (n = 260,000);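 active = above the screen mean plus three standard deviations and confirmed in dose response; inconclusive = results disagree or hit not tested in dose response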;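 also: Vif residues 1-94 fused to GST binding biotinylated APOBEC3G peptide 110-148; 0% = full assay without inhibitor and 100% = GST in place of GST-Vif; retest series ran down from 100 µM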
Calb FLC = C. albicans growth inhibition with fluconazole, primary screen, CaCi-2 strain, Alamar Blue fluorescence | AID 1979, 2009 | C. albicans CaCi-2 (fluconazole-resistant clinical isolate) + fluconazole, 48 h | actives 0.57% (n = 300,000) | growth inhibition, % (test concentration not listed);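 active = most replicates above 75%; inconclusive = exactly half above 75%; inactive = most below 75%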;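 also: all wells also contain fluconazole at 8 µg/ml as a sub-toxic cotreatment; 0% = median of DMSO wells and 100% = median of geldanamycin control wells; wells of about 8 µL received 7.5 nL stock; the first replicate is given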
AF4-AF9 inh = inhibitors of AF4 peptide binding to AF9, primary screen, biochemical, AlphaScreen, biotin-AF4 peptide, FLAG-AF9, single point | inhibition, % at 10 µM | actives 0.47% (n = 350,000) | AID 651704, 2012;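 active = every replicate reaching a set inhibition limit, whatever the replicate mean, cut at about 25% in these data; inconclusive = mean inhibition reaches that limit but some replicates miss it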;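 also: 0% = plate neutral control median and 100% = total signal loss; the record names both 10 and 1 µM as test concentration; the first replicate is given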
Target sequence (P42568 whole entry, looked up): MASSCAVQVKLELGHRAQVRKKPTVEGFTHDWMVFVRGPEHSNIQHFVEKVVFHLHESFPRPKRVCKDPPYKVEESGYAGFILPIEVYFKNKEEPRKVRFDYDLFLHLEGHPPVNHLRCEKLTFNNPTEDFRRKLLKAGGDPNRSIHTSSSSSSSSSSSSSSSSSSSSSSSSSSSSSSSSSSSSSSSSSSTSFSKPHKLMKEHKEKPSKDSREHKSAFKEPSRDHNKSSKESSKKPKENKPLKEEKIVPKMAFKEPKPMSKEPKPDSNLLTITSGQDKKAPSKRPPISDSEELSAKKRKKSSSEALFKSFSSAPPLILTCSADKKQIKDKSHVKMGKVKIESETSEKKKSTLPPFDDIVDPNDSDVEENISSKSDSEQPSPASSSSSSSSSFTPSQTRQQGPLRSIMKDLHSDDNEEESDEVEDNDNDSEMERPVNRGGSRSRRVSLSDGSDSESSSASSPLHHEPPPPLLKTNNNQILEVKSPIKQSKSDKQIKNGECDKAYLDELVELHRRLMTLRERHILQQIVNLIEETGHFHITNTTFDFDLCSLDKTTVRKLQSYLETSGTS
Beta cell apopt = inhibitors of cytokine-induced beta cell apoptosis, primary screen, luminescence; INS-1E cytokine-induced death, ATP luminescence, 48 h; percent of positive-control rescue, neutral wells zero; protection from apoptosis, % (test concentration not listed); actives 0.8% (n = 300,000);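 active = all replicates at 75% or more, or half of them and the mean; inconclusive = half reach 75% but not the mean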;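 also: 0% = cytokine-treated negative control wells and 100% = positive control rescue; higher means more ATP so stronger rescue from cytokine killing; wells of about 40 µL received 100 nL stock; the first replicate is given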
RanGTP-Imp inh = inhibitors of RanGTP-importin-beta interaction, primary screen, biochemical, FRET, CFP-Ran, YFP-importin-beta, homogeneous | AID 2216, 2009 | inhibition, % (test concentration not listed) | Ran GTPase (GTP-bound) - importin-beta complex | cell-free CFP-Ran/YFP-importin-beta FRET ratio | actives 1.1% (n = 300,000);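 active = most replicates above 15%; inconclusive = exactly half above 15%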;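 also: 0% = DMSO wells and 100% = Ran loaded with GDP instead of GTP; wells of about 40 µL received 100 nL stock; the first replicate is given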
A1 inh = caspase 3/7 activation in MEF A1-2A-BIM cells, primary screen, A1 inhibitor project, cell-based, luminescence, HTS. Caspase-Glo 3/7 luminescence, 3 h; percent of clofoctol response, vehicle zero. caspase activation, % (no concentration beside the values). actives 0.066% (n = 330,000). AID 2462, 2010;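 active = over half of replicate activation scores above 10%, or exactly half above 10 with the replicate mean above 10; inconclusive = replicate mean below 10 yet half the replicates above 10; inactive = over half of replicates below 10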;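 also: wells of about 30 µL received 50 nL stock; many hits fall short of the cut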
T cruzi inh = inhibitors of intracellular T. cruzi growth, primary screen, luminescence, NIH3T3 host cells; actives 1.4% (n = 300,000); T. cruzi beta-gal in NIH3T3, 90 h; inhibition, % (no concentration beside the values);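 active = mean inhibition across valid replicates above about 55%, limit read from the data; inconclusive = mean below that limit but half or more replicates reach it; inactive = mean below it, under half of replicates reach it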;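 also: signal also drops with host cell toxicity which is not excluded here; 0% = plate median of DMSO wells and 100% = zero luminescence signal; higher percent means less beta-gal luminescence so fewer parasites; stock transfer was 50 nL into about 50 µL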
rRNA inh HTS OD600 = further read-out of rRNA inh HTS, marked with its call; OD600 change, %; measured here: OD600 growth;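 optical density of the mix in the first replicate; 0 = DMSO median and -100 = no signal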
rRNA inh HTS RFP = recorded beside rRNA inh HTS, whose call it bears; RFP signal change, %; measured here: RFP humanized mutant strains;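 first replicate; 0 = DMSO median and -100 = no signal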
An asterisk follows results filed as active.

Screening N#Cc1ccc(Oc2ccc(S(=O)(=O)N3CCOCC3)cn2)cc1 returned rRNA inh HTS 11, Vif A3G 0%, Calb FLC 7, AF4-AF9 inh -1.1, Beta cell apopt -3, RanGTP-Imp inh -2.3, A1 inh 0.9, T cruzi inh -16, rRNA inh HTS OD600 10 and rRNA inh HTS RFP 2.4.
CCc1ccc(NC(=O)Nc2cc(C(=O)O)ccc2N2CC3CC(C2)c2cccc(=O)n2C3)cc1 (stereo unspecified) was read as rRNA inh HTS 3, Calb FLC -10, AF4-AF9 inh 0.4, Beta cell apopt -6, RanGTP-Imp inh -0.4, A1 inh -1.0, T cruzi inh -3, rRNA inh HTS OD600 12 and rRNA inh HTS RFP -2.2.
For CCOc1ccc(C2C(C#N)=C(N)Oc3cc(C)oc(=O)c32)cc1 (stereo unspecified) the results were rRNA inh HTS 6, Vif A3G 5%, Calb FLC 6, AF4-AF9 inh -2.7, Beta cell apopt -5, RanGTP-Imp inh 1.1, A1 inh 0.2, T cruzi inh -11, rRNA inh HTS OD600 2 and rRNA inh HTS RFP -1.8.
Screening CCn1cc([N+](=O)[O-])c(C(=O)N2CCCC2)n1 returned Vif A3G -1%, Calb FLC 6, RanGTP-Imp inh 1.8 and T cruzi inh -16.
Cn1cnc(S(=O)(=O)Nc2cc(C(F)(F)F)ccc2N2CCOCC2)c1 was read as rRNA inh HTS 2, Vif A3G -1%, Calb FLC -5, AF4-AF9 inh 3.0, Beta cell apopt 3, RanGTP-Imp inh 0.7, A1 inh -0.4, T cruzi inh -2, rRNA inh HTS OD600 -3 and rRNA inh HTS RFP -2.2.
Screening CCn1nc(C)c(CNC(=O)c2cc(COc3ccc(F)cc3Cl)on2)c1C returned rRNA inh HTS -13, Calb FLC -4, Beta cell apopt 32, RanGTP-Imp inh 4.4, A1 inh -0.5, T cruzi inh 17, rRNA inh HTS OD600 -15 and rRNA inh HTS RFP 13.
`CCCC(C(=O)OCC)P(=O)(c1ccccc1)c1ccccc1` (stereo unspecified) gave rRNA inh HTS 2, Vif A3G 2%, Calb FLC 25, Beta cell apopt -2, RanGTP-Imp inh 7.9, A1 inh -0.8, T cruzi inh -5, rRNA inh HTS OD600 9 and rRNA inh HTS RFP -0.1.
Screening COc1ccc(Nc2nc(N)nc(CN(C)C3CCCCC3)n2)cc1 returned Vif A3G 3%, Calb FLC 18, Beta cell apopt -4, RanGTP-Imp inh 5.8, A1 inh -0.5 and T cruzi inh 2.
`CN1CCN(NS(=O)(=O)c2cccs2)CC1` gave Calb FLC -10, Beta cell apopt 1, RanGTP-Imp inh 0.5, A1 inh 0.1 and T cruzi inh -11.
For COC(=O)c1c(C)[nH]c(C(=O)/C=C/c2ccccc2F)c1C the results were rRNA inh HTS 8, Vif A3G 4%, Calb FLC -19, AF4-AF9 inh -0.6, Beta cell apopt 4, RanGTP-Imp inh -0.3, A1 inh -0.7, T cruzi inh 0, rRNA inh HTS OD600 -4 and rRNA inh HTS RFP 5.5.
Screening COc1ccccc1NCCC(=O)OCC(=O)Nc1ccc(Cl)cn1 returned Vif A3G 5%, Calb FLC 4, Beta cell apopt -1, RanGTP-Imp inh -0.6, A1 inh -0.6 and T cruzi inh -4.
CN(Cc1cnn(C)c1)Cc1nc(Cc2ccccc2Cl)no1 was read as rRNA inh HTS 6, Vif A3G -1%, Calb FLC -11, AF4-AF9 inh -1.0, Beta cell apopt -3, RanGTP-Imp inh -3.4, A1 inh 2.2, T cruzi inh -3, rRNA inh HTS OD600 -4 and rRNA inh HTS RFP -1.1.
Screening CC(NC(=O)COC(=O)Cn1cc(C(F)(F)F)ccc1=O)c1ccccc1 (stereo unspecified) returned rRNA inh HTS 6, AF4-AF9 inh -1.4, Beta cell apopt 2, A1 inh 0.6, rRNA inh HTS OD600 10 and rRNA inh HTS RFP -1.3.
Screening Nc1nc(SCCO)[nH]c(=O)c1NC(=O)c1ccccc1F returned Vif A3G 0%, Calb FLC 16, AF4-AF9 inh -11, Beta cell apopt -4, RanGTP-Imp inh -2.4, A1 inh 0.9 and T cruzi inh -29.
For CCn1nnc(NC(=O)c2ccc(C(C)(C)C)cc2)n1 the results were Vif A3G -1%, Calb FLC 18, Beta cell apopt -8, RanGTP-Imp inh 3.7, A1 inh -1.4 and T cruzi inh 11.
Cc1c(C(=O)N2CCOCC2)c(S(=O)(=O)Nc2cccc(F)c2)c(C)n1C was read as rRNA inh HTS 7, Vif A3G -2%, Calb FLC 8, AF4-AF9 inh -0.4, RanGTP-Imp inh 2.8, A1 inh -1.0, T cruzi inh -4, rRNA inh HTS OD600 1 and rRNA inh HTS RFP -1.4.
Screening COc1ccc(NC(=O)CNC(=O)c2ccco2)cc1 returned rRNA inh HTS 14, Vif A3G 7%, Calb FLC 0, AF4-AF9 inh -0.7, Beta cell apopt -8, RanGTP-Imp inh 5.4, A1 inh -0.2, T cruzi inh -8, rRNA inh HTS OD600 15 and rRNA inh HTS RFP -1.1.
Screening CC1=Nc2ccccc2/C1=C\c1nc(-c2ccc(F)cc2)oc1O returned rRNA inh HTS 6, Vif A3G 2%, Calb FLC -25, AF4-AF9 inh 6.6, Beta cell apopt -5, RanGTP-Imp inh 22*, A1 inh 0.1, T cruzi inh -2, rRNA inh HTS OD600 14 and rRNA inh HTS RFP 23.
For CC1CCN(C(=O)C(=O)Nc2sc3c(c2C(N)=O)CC(C)(C)OC3)CC1 the results were rRNA inh HTS 0, Calb FLC 7, AF4-AF9 inh -0.1, Beta cell apopt -8, RanGTP-Imp inh 4.3, A1 inh 0.3, T cruzi inh -10, rRNA inh HTS OD600 -1 and rRNA inh HTS RFP -3.1.
O=C(O)C1C2C=CC(O2)C1C(=O)NCCCn1ccnc1 (stereo unspecified) was read as Vif A3G 31%, Calb FLC 26, Beta cell apopt -3, RanGTP-Imp inh 0.9, A1 inh 0.1 and T cruzi inh inconclusive.
`O=C(O)CCC(=O)Nc1ccc(Cc2ccc(NC(=O)CCC(=O)O)cc2)cc1` gave Vif A3G 22%, Calb FLC 0, Beta cell apopt -12, RanGTP-Imp inh 5.1, A1 inh 0.5 and T cruzi inh -7.
`CCn1c(=O)c(-c2cc(=O)[nH][nH]2)c(O)c2ccccc21` gave rRNA inh HTS -9, Calb FLC -5, AF4-AF9 inh -3.4, Beta cell apopt -3, RanGTP-Imp inh 0.4, A1 inh -0.4, T cruzi inh -7, rRNA inh HTS OD600 5 and rRNA inh HTS RFP 1.9.
Screening COc1ccc(OC)c(NC(=O)Nc2cccc(Cn3cccn3)c2)c1 returned Vif A3G 1%, Calb FLC 23, Beta cell apopt 5, RanGTP-Imp inh 3.2 and T cruzi inh -3.
Screening CS(=O)(=O)N(CCc1ccccc1)CC(=O)Nc1ccc(Br)cc1F returned rRNA inh HTS -19, Calb FLC 5, AF4-AF9 inh 3.0, Beta cell apopt 5, RanGTP-Imp inh 0.5, A1 inh 0.1, T cruzi inh -1, rRNA inh HTS OD600 -40 and rRNA inh HTS RFP -4.5.
`CCOC(=O)Cc1csc(NS(=O)(=O)c2ccc(OC)cc2)n1` gave rRNA inh HTS 11, Vif A3G -5%, Calb FLC 11, AF4-AF9 inh -3.1, Beta cell apopt 4, RanGTP-Imp inh 4.8, A1 inh -0.3, T cruzi inh -7, rRNA inh HTS OD600 10 and rRNA inh HTS RFP -2.8.
Screening CS(=O)(=O)N(CCc1ccccc1)CC(=O)NCc1ccncc1 returned rRNA inh HTS 19, Vif A3G 1%, Calb FLC 5, RanGTP-Imp inh -1.3, A1 inh 0.4, T cruzi inh -9, rRNA inh HTS OD600 16 and rRNA inh HTS RFP -3.0.
Screening C/C(Cl)=C\Cn1c(=O)c2c(nc3n2CCS3)n(C)c1=O returned Vif A3G 30%, Calb FLC -6, Beta cell apopt -4, RanGTP-Imp inh 1.6, A1 inh -1.2 and T cruzi inh -7.
For CCc1ccccc1NC(=O)c1ccccc1Sc1ccc([N+](=O)[O-])cc1Cl the results were rRNA inh HTS -7, Vif A3G 7%, Calb FLC 8, AF4-AF9 inh -0.4, Beta cell apopt -3, RanGTP-Imp inh 1.9, A1 inh 0.1, T cruzi inh 52, rRNA inh HTS OD600 -8 and rRNA inh HTS RFP -7.1.
`COc1ccc(C(=O)N/C(=C\c2cn(C)c3ccccc23)C(=O)NCCCN2CCOCC2)cc1OC` gave rRNA inh HTS 15, AF4-AF9 inh 0.8, Beta cell apopt -1, RanGTP-Imp inh 3.7, A1 inh -0.2, T cruzi inh 3, rRNA inh HTS OD600 3 and rRNA inh HTS RFP 2.8.
`COc1cccc(CC(=O)N2CCC(n3nccc3NC(=O)C3CCOC3)CC2)c1` (stereo unspecified) gave rRNA inh HTS 2, Vif A3G -2%, Calb FLC -7, AF4-AF9 inh -3.2, Beta cell apopt -3, RanGTP-Imp inh inconclusive, A1 inh -0.1, T cruzi inh -4, rRNA inh HTS OD600 5 and rRNA inh HTS RFP -0.7.
For COc1ccc(CCNC(=O)CN2C(=O)NC3(CCc4ccccc43)C2=O)cc1 (stereo unspecified) the results were rRNA inh HTS 0, Vif A3G -1%, AF4-AF9 inh -0.8, Beta cell apopt -1, A1 inh -0.4, rRNA inh HTS OD600 4 and rRNA inh HTS RFP -1.5.
COc1cc(C(=O)NC(C(=O)Nc2cccc(C(C)=O)c2)C(C)C)cc(OC)c1OC (stereo unspecified) was read as rRNA inh HTS 4, Vif A3G 27%, Calb FLC 1, AF4-AF9 inh -0.4, Beta cell apopt -12, RanGTP-Imp inh 1.6, A1 inh 0.3, T cruzi inh 5, rRNA inh HTS OD600 -1 and rRNA inh HTS RFP 0.5.
CC(=O)c1ccc(NC(=O)CC23CC4CC(C2)CC(n2nnc(C)n2)(C4)C3)cc1 was read as rRNA inh HTS -18, Calb FLC -3, AF4-AF9 inh -9.1, Beta cell apopt 8, RanGTP-Imp inh 1.6, A1 inh 0.2, T cruzi inh 5, rRNA inh HTS OD600 -12 and rRNA inh HTS RFP 0.0.
For Cc1ccc(N(CC(=O)Nc2cc(C)ccc2C)S(C)(=O)=O)cc1 the results were rRNA inh HTS 4, Calb FLC 9, AF4-AF9 inh -15, Beta cell apopt -5, RanGTP-Imp inh -2.1, A1 inh 0.4, T cruzi inh 2, rRNA inh HTS OD600 1 and rRNA inh HTS RFP 0.1.
`CCOc1ccc(C(=O)NC(=S)N(Cc2ccccc2)Cc2ccccc2)cc1` gave rRNA inh HTS -9, Vif A3G 25%, Calb FLC 10, AF4-AF9 inh -0.4, Beta cell apopt 18, RanGTP-Imp inh 3.4, A1 inh 0.1, T cruzi inh inconclusive, rRNA inh HTS OD600 5 and rRNA inh HTS RFP -6.6.
Cc1ccc(N(Cc2cc3ccccc3[nH]c2=O)C(=O)c2ccco2)c(C)c1 was read as Vif A3G -1%, Calb FLC 8, Beta cell apopt -3, RanGTP-Imp inh -1.2, A1 inh 0.7 and T cruzi inh 13.

Source: PubChem BioAssay (several laboratories)

An excerpt. The share of hits here may be higher or lower than overall.
